Bst PK mod: modulators of Bacillus stearothermophilus pyruvate kinase. partly purified Bacillus stearothermophilus pyruvate kinase, luminescence ATP production; ribose 5-phosphate activator present at AC10. Potency, µM. 1.2% of 51,000 active; in the data active means potency below about 11 µM; inconclusive means mostly about 12 µM to 25 µM; inactive means weaker than that;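 the screen sought inhibitors and activators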;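 further: potency means the concentration at half of the fitted maximal effect; scaled between full activation by ribose 5 phosphate and full inhibition by luteolin; about four in five hits inhibit and the cells do not say which; series up to 57 µM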
YjeE inh: YjeE (TsaE) inhibition, E. coli; P0AF67; purified YjeE, fluorescence polarisation of a bound ADP probe; Potency, µM; 0.05% of 71,000 active; AID 605; active = well fitted falling curve; inconclusive = weaker or top-dose-only fall, or a rising curve; inactive = flat or poorly fitted curve;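 further: top concentration of the series not given in the record; excess ADP was the control for the full effect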
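Purified YjeE (10 uM) with BODIPY Texas Red-labeled ADP probe (2 uM); compounds pin-transferred, 15 min at room temperature. Binding inhibition read as decreased fluorescence polarization; ADP titration as control.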
Active calls of the source: *; i = inactive; ? = inconclusive; / = no result given. The list is partial; count on the stated rates, not on these rows.

cpd	Bst PK mod	YjeE inh	compound
1	>57	i	Cn1nnnc1SCC(=O)N1c2ccccc2Sc2ccc(Cl)cc21
2	?	i	Cc1ccc(S(=O)(=O)N2CCN(C(=O)c3cccc(F)c3)CC2)cc1
3	>57	i	Nc1nc(SCC(=O)NCc2ccccc2)n[nH]1
4	>57	i	CC1(C(=O)O)CCC(C(=O)Nc2ccccc2)C1(C)C (stereo not drawn)
5	/	i	O=C1CC(Sc2nnnn2C2CCCCC2)C(=O)N1c1ccccc1 (stereo not drawn)
6	>57	i	Cn1nnnc1SCC(=O)Nc1ccccc1Cl
7	>57	?	Cn1cc(/C=N/n2cnc3scc(-c4ccc(Cl)cc4)c3c2=O)c2ccccc21
8	/	i	COc1c(Cl)cc(-c2noc(C)c2C(=O)NCc2ccc3c(c2)OCO3)cc1Cl
9	>57	i	Nc1cc(N)nc(SCC(=O)Nc2ccc(Br)cc2Cl)n1
10	/	i	CN(C)CCCCl
11	>57	i	C/C(=C1/SC(N2CCOCC2)=NC1=O)c1ccc(Cl)cc1
12	>57	i	COc1ccc(OC)c(-c2nc3c(C)n[nH]c(=O)c3[nH]2)c1
13	>57	i	CCOc1cccc2cc(C(=O)Nc3nccs3)c(=O)oc12
14	/	i	N[C@H](Cn1ccc(=O)c(O)c1)C(=O)O
15	>26	/	CCOc1cccc(-c2nnc3sc(C4CCCCC4)nn23)c1

Entries listed so far that have a halogen (eight):
cpd	Bst PK mod	YjeE inh	compound
1	>57	i	Cn1nnnc1SCC(=O)N1c2ccccc2Sc2ccc(Cl)cc21
2	?	i	Cc1ccc(S(=O)(=O)N2CCN(C(=O)c3cccc(F)c3)CC2)cc1
6	>57	i	Cn1nnnc1SCC(=O)Nc1ccccc1Cl
7	>57	?	Cn1cc(/C=N/n2cnc3scc(-c4ccc(Cl)cc4)c3c2=O)c2ccccc21
8	/	i	COc1c(Cl)cc(-c2noc(C)c2C(=O)NCc2ccc3c(c2)OCO3)cc1Cl
9	>57	i	Nc1cc(N)nc(SCC(=O)Nc2ccc(Br)cc2Cl)n1
10	/	i	CN(C)CCCCl
11	>57	i	C/C(=C1/SC(N2CCOCC2)=NC1=O)c1ccc(Cl)cc1

(list continues)
cpd	Bst PK mod	YjeE inh	compound
16	/	i	COC(=O)c1c(NC(=O)CC2SCC(C(=O)OC)NC2=O)sc2c1CCCC2 (stereo not drawn)
17	/	i	CCNc1ncc2nc(C)c(=O)n(Cc3cccs3)c2n1
18	i	i	O=C(c1ccco1)N1CCN(C(=O)c2cc(-c3ccccn3)nc3ccc(Cl)cc23)CC1
19	>57	i	Cc1ccc(-n2nnc3c(=O)oc4ccccc4c32)cc1
20	>57	i	COc1cc(C(=O)Nc2nc3ccc(S(=O)(=O)N4CCOCC4)cc3s2)cc(OC)c1OC
21	>57	i	COc1cccc(-c2nnc(NC(=O)Cc3cccs3)s2)c1
22	>57	i	CC(C)CCn1c(SCC(=O)OCn2nnc3ccccc3c2=O)nc2ccccc2c1=O
23	>57	i	COCCSc1nnc(NC(=O)CSCc2ccccc2)s1
24	>57	i	CCc1ccccc1NS(=O)(=O)c1cc(C)ccc1OC
25	/	i	O=C(c1ccncc1)N1CCC[C@@]2(CCN(c3ccccn3)C2)C1
26	/	i	COc1ccc(N2CCN(CCCNC(=O)CC3Oc4ccc(C)cc4NC3=O)CC2)cc1 (stereo not drawn)
27	/	i	O=C(c1cc(C(F)(F)F)cc(C(F)(F)F)c1)N1CCC2(CC1)CN(c1ncccn1)C2
28	>57	i	O=C(CSc1nc2c(c(=O)n1-c1ccc(Br)cc1)SCC2)Nc1nccs1
29	>26	/	CC1(C)CC(=O)C2=C(C1)Oc1nc3ccccc3cc1C2C(C#N)C#N (stereo not drawn)
30	/	i	O=C(O)c1cccc2cccc(-c3cccc4cccc(C(=O)O)c34)c12
31	>57	i	Cc1ccc(C)n1-c1ccc(C(=O)N2CCOCC2)cc1
32	>57	i	CN(C)c1ccc(CNn2cnnc2SCc2ccccc2F)cc1
33	>57	i	CCOC(=O)N1CCC(NC(=O)CCN2C(=O)C3C4C=CC(C4)C3C2=O)CC1 (stereo not drawn)
34	/	i	CCOC(=O)c1ccc(Nc2ncnc3nc[nH]c23)cc1
35	>57	i	COCCNC(=O)C1CC(=O)N(CCc2ccccc2)C1 (stereo not drawn)
36	/	i	CSc1ccc(CN2CCC(O)CC2)cc1
37	>57	i	COc1cc(C(=O)Nc2ccc(NC(=O)C(C)C)nc2)cc(OC)c1OC
38	/	i	CC(C)(C)NCCCCOc1ccccc1F
39	>57	i	CCc1cc2cc(C)cc(C)c2nc1SCC(=O)N1CCN(C(=O)c2ccco2)CC1
40	>26	/	CCOC(=O)Cn1c(SC)nc2sc3c(c2c1=O)CC(C)(C)OC3
41	>57	i	O=C(CCN1CCc2ccccc2C1)Nc1cccc(F)c1
42	/	i	FC(F)(F)c1cnc2c(c1)Nc1ccccc1S2
43	>26	/	C(=N\n1cnnc1)/c1cccc(Oc2ccccc2)c1
44	>57	i	O=C(COC(=O)C1=COCCO1)Nc1ncc(C(F)(F)F)cc1Cl
45	/	i	c1cc2[nH]snc2c2nc(C3CC3)nc12
46	>57	i	Cc1ccc2c(c1)N(CC(=O)NC1CCCCC1C)C(=O)CO2 (stereo not drawn)
47	/	i	COc1ccc(OC)c(S(=O)(=O)NCCc2cn3ccsc3n2)c1
48	>57	i	CCCOC(=O)Nc1cc(OC)c(Cl)cc1OC
49	>57	i	CCC(CO)NCCNC(CC)CO (stereo not drawn)
50	>57	i	Cc1nnc(NC(=O)C2(c3ccccc3)CCOCC2)s1
51	/	i	Oc1c(C(c2ccccc2)N2CCc3ccccc3C2)sc2ncnn12 (stereo not drawn)
52	>57	i	COC(=O)NC1(C(F)(F)F)NC(=O)N(C2CCCCC2)C1=O (stereo not drawn)
53	>57	i	O=C(CCn1nnc(-c2cccs2)n1)NC1CCCCC1
54	>26	/	O=c1[nH]cnc2c1cnn2Cc1ccccc1
55	?	i	Cc1cc(C(=O)CN2C(=O)c3ccccc3S2(=O)=O)c(C)n1-c1ccccc1
56	>57	i	COc1cccc(NC(=O)C2CC(=O)N=C(N)S2)c1 (stereo not drawn)
57	>57	i	C=CCOC(=O)C1=C(C)NC(SCC(=O)NC(=O)OCC)=C(C#N)C1c1cccnc1 (stereo not drawn)
58	>57	i	O=C(CCS(=O)(=O)Cc1ccccc1)NCc1ccco1
59	/	i	COCCNc1nc(-c2ccccc2C(F)(F)F)nc2ccccc12
60	>26	/	CCCOc1ccc(Cn2c(O)cc(=O)[nH]c2=O)cc1
61	>57	i	O=S1(=O)N=C(N2CCc3ccccc3C2)c2ccccc21
62	>57	i	Cn1c(=O)oc2cc(S(=O)(=O)N3CCN(c4cccc(Cl)c4)CC3)ccc21
63	>57	i	O=C(CNC(=O)c1ccco1)OC(C(=O)c1ccccc1)c1ccccc1 (stereo not drawn)
64	/	i	O=c1c(-c2ccc(F)cc2)nc2cnc(Nc3ccccc3)nc2n1C[C@H]1CCCO1
65	>57	i	O=C(Oc1cccc(N2C(=O)CCC2=O)c1)C1CC(=O)N(c2ccc(Br)cc2)C1 (stereo not drawn)
66	/	i	CCc1ccc(Nc2cc(C)nc3nc(C)nn23)cc1
67	>57	i	CCCC(=O)Nc1nc(C(=O)OCC)cs1
68	>57	i	O=C(COc1ccc(-n2cnnn2)cc1)N1CCN(c2ccc(F)cc2)CC1
69	>57	i	COCCCNC(=O)C1CC(=O)N(C2CCCC2)C1 (stereo not drawn)
70	/	i	O=c1c2c3c(sc2nc2sc(C4CC4)nn12)CCCC3
71	>57	i	COc1cccc(-c2nnc(SCC(=O)N(C(C)C)C(C)C)o2)c1
72	?	i	Cc1cc(C(=O)COC(=O)c2n[nH]c3ccccc23)c(C)n1C
73	>57	i	COC(=O)c1cc(NC(=O)CC2SCCNC2=O)cc(C(=O)OC)c1 (stereo not drawn)
74	/	i	O=C(O[C@@H](C(=O)O)[C@@H](OC(=O)c1ccccc1)C(=O)O)c1ccccc1
75	>57	i	COc1cccc(NC(=O)C2C3CC4OC(=O)C2C4C3)c1 (stereo not drawn)

Next part:
cpd	Bst PK mod	YjeE inh	compound
76	>11	i	COc1ccc(C2C=C(c3ccccc3)Nc3nc(CCCO)nn32)cc1 (stereo not drawn)
77	>11	i	CC(C)CCOCC(=O)Nc1cccc(C(=O)O)c1
78	>57	i	CCOC(=O)c1nn(-c2ccccc2C)c(=O)c(C#N)c1C
79	>57	i	CCOC(=O)CNC(=O)c1nn(-c2cccc(OC)c2)c(=O)c2ccccc12
80	/	i	N#CC(C#N)=c1ccc2c(c1)NC1(CCCCC1)N=2
81	>57	i	Cn1ccnc1C(=O)c1cc(=O)c2ccccc2o1
82	>57	i	Cc1cccc(N2CCN(C(=O)c3cc4n(n3)C(C(F)(F)F)CC(c3ccco3)N4)CC2)c1C (stereo not drawn)
83	>26	/	CN1[C@@H](CC(=O)c2ccccc2)CCC[C@H]1C[C@H](O)c1ccccc1
84	>57	i	CN1C(=O)CC(C(=O)Nc2ccc(F)cc2)SC1=Nc1ccc2c(c1)OCO2 (stereo not drawn)
85	>57	i	CCOC(=O)C1CCN(c2cc(=O)n(C3CCCCC3)c(=O)[nH]2)CC1
86	>57	?	N#CC1=C(N)Oc2n[nH]c(-c3cccs3)c2C1c1ccco1 (stereo not drawn)
87	>57	i	CC1S/C(=C(\C#N)C(=O)NCc2ccco2)N(Cc2ccco2)C1=O (stereo not drawn)
88	>57	i	CCN(C(=O)CN1CCN(c2ccccc2)CC1)c1c(N)n(Cc2ccccc2)c(=O)[nH]c1=O
89	/	i	Cc1nn(Cc2ccccc2)c2c1C(c1ccco1)C(C#N)=C(N)O2 (stereo not drawn)
90	>57	i	COCCn1cnnc1SCC(=O)c1ccc(S(=O)(=O)N2CCCC2)cc1
91	/	i	CN(C)c1ncc2nc(-c3cn(C)c4ccccc34)c(=O)n(C[C@H]3CCCO3)c2n1
92	/	i	COc1ccc(OC)c(C2C(C(=O)Nc3ccc(F)cc3)=C(C)Nc3nc(CCCO)nn32)c1 (stereo not drawn)
93	/	i	CCN(CC)CCNC(=O)Cn1nc(Cc2cccnc2)c2ccccc2c1=O
94	/	i	O=C1c2ccccc2NC(c2cnc3ccccc3n2)N1O (stereo not drawn)
95	/	i	CSc1cccc(NC(=O)Nc2ccccc2)c1
96	>57	i	C=C(C)Cn1c(SCCCO)nc2c1c(=O)[nH]c(=O)n2C
97	i	/	Cc1ccc2[nH]c3c(N4CCOCC4)ncnc3c2c1
98	/	i	O=c1c(-c2cccs2)nc2cnc(N3CCNCC3)nc2n1CCc1ccccc1
99	>57	i	CCCCOc1ccc(C(O)(CCC)CCN2CCOCC2)cc1 (stereo not drawn)
100	>57	i	Cc1cccc2cc(CN(Cc3ccc4c(c3)OCO4)Cc3nnnn3C3CCCC3)c(=O)[nH]c12
101	>57	i	CCc1ccc(NC(=O)N(CCCOC(C)C)C2CCN(C(C)=O)CC2)cc1
102	>57	i	CCN(CCCNC(=O)C1CCN(S(=O)(=O)CC)CC1)c1cccc(C)c1
103	/	i	CCCCNc1nc(C)nc2c1nc(-c1ccccc1)n2CCCN1CCCCC1C (stereo not drawn)
104	/	i	NC(N)=NCCN1CCCCCCC1
105	/	i	CN(C)Cc1ccccc1-c1cncnc1Nc1ccccc1

Overlap with the part before: 6 entries, followed by the next part.
cpd	Bst PK mod	YjeE inh	compound
100	>57	i	Cc1cccc2cc(CN(Cc3ccc4c(c3)OCO4)Cc3nnnn3C3CCCC3)c(=O)[nH]c12
101	>57	i	CCc1ccc(NC(=O)N(CCCOC(C)C)C2CCN(C(C)=O)CC2)cc1
102	>57	i	CCN(CCCNC(=O)C1CCN(S(=O)(=O)CC)CC1)c1cccc(C)c1
103	/	i	CCCCNc1nc(C)nc2c1nc(-c1ccccc1)n2CCCN1CCCCC1C (stereo not drawn)
104	/	i	NC(N)=NCCN1CCCCCCC1
105	/	i	CN(C)Cc1ccccc1-c1cncnc1Nc1ccccc1
106	>57	i	CCC(Sc1ncccc1C(=O)O)C(=O)N1CCCC1 (stereo not drawn)
107	>57	i	COc1ccc(C2C(C(=O)N3CCN(c4ccccc4)CC3)c3ccccc3C(=O)N2C)cc1OC (stereo not drawn)
108	/	i	Fc1ccc(C(OCCCc2cnc[nH]2)c2ccc(F)cc2)cc1
109	/	i	CC(=O)c1ccc(OC(=O)C2CC(=O)N(c3cccc(C)c3)C2)cc1 (stereo not drawn)
110	>26	/	Cc1cc2c(c(=O)n1Cc1cccnc1)C(c1ccccc1)C(C#N)=C(N)O2 (stereo not drawn)
111	>57	i	CSCC[C@H](NC(=O)OC(C)(C)C)C(=O)N1CCC(C(=O)N[C@@H](C)C(=O)O)CC1
112	/	i	Clc1ccc(-c2nnc(-c3cccc4ccccc34)o2)cc1Cl
113	>57	i	Cc1csc(NC(=O)c2ccc(C)c(S(=O)(=O)N3CCCCC3)c2)n1
114	>57	i	CSc1nnc2c3cc(C)ccc3n(Cc3ccccc3)c2n1
115	>57	i	N#CC1=C(N)Oc2n[nH]c(-c3cccs3)c2C1c1cccs1 (stereo not drawn)
116	/	i	COc1ccc(-n2c(=O)c(C)nc3cnc(N4CCNCC4)nc32)cc1
117	/	i	CCOc1ccc(C(=O)Nc2ccc(N3CCN(C)CC3)cc2)cc1Br
118	/	i	Oc1cccc(Nc2ccccc2)c1
119	/	i	O=C(Sc1nnc(-c2ccccc2)o1)N1c2ccccc2Sc2ccccc21
120	>57	i	O=C(NCCc1c[nH]c2ccccc12)C1CCN(c2nnc(N3CCCC3=O)s2)CC1
121	>57	i	CCOc1ccccc1-n1nnnc1SCc1nc2ccccc2s1
122	/	i	CCN(CC)c1ccc(NC(=O)Cn2cc3c(n2)CCC(C)C3)c(C)c1 (stereo not drawn)
123	>57	i	COC(=O)c1ccc(-c2ccc(CNCC(O)c3ccccc3)o2)cc1 (stereo not drawn)

Bioassay records: PubChem, National Center for Advancing Translational Sciences (NCATS)
